gsp agonist – agonists of gsp mutant (McCune-Albright syndrome) | gsp mutant cells, cAMP HTRF, 30 min; control for the full effect not named in the record | AID 624287 | Potency, µM (doses to about 76.9 µM), inactives show top-dose activation (cAMP increase), hits mostly activators | 340,000 tested, 0.13% active; active = well fitted activation curve with a large enough effect; inconclusive = small, poorly fitted or top-dose-only effect, or another doubt; inactive = no such curve, though single readings can be large or run the other way; cell line not stated here;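 also: phosphodiesterase inhibitor Ro 20-1724 added with compounds to block cAMP breakdown; potency is read from the fitted curve at half-maximal effect; nearly all actives have a fitted effect of over 60% in size; about a fifth of the inactives were tested at one dose only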
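Cells in DMEM/10% FBS with G418 were pretreated with compounds in DMSO plus […] (300 uM stock) for 30 min at 37C. cAMP was measured by HTRF (cAMP-d2 plus anti-cAMP antibody-K) after 30 min at room temperature.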
TRPML1 inh – blocks the human TRPML1 channel; TRPML1-inducible cells, Ca2+ dye fluorescence, FDSS; active compounds read low; inhibition of EC80 agonist-evoked calcium signal; 390,000 tested, 0.02% active; AID 624415; Q9GZU1; activity change, negative = inhibition, % (no concentration beside the values); in the data active means activity change below about -50%; inconclusive means about -30% to -50%; inactive means above about -30%;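 also: stimulus is agonist 54-4 at its EC80 concentration; % is scaled to controls: 0 for no effect and ±100 for the full control effect; compound concentration not given in the record; the text of the record puts the active cut at -80%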
Target sequence (Q9GZU1 whole entry, looked up): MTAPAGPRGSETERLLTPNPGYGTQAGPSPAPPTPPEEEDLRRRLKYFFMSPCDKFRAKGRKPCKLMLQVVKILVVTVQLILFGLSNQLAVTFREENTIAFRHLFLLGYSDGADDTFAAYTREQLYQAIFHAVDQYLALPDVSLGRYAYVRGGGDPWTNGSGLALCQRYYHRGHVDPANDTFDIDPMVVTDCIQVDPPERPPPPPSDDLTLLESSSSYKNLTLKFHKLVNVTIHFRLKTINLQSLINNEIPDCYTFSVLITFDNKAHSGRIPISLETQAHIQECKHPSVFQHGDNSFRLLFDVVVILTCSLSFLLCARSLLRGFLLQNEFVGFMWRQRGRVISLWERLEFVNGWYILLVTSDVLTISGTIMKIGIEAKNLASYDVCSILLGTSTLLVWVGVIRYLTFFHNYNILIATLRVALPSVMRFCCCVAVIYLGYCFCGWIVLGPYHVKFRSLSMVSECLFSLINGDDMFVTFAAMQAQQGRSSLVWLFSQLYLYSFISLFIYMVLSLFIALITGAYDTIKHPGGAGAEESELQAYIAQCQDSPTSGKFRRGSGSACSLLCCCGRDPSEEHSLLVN
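TRPML1-DL cells, Tet-induced overnight (~16 h, 37 °C) at 1,500 cells/well, were loaded with Ca8 no-wash dye plus quencher for 45-90 min at room temperature. Compounds were pinned during FDSS kinetic reading; agonist 54-4 at EC80 (4 uM final) then added.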
TRPV1 PAM – enhances activation of the human vanilloid receptor TRPV1. Q8NER1. TRPV1-expressing cells, Fluo-8 calcium influx, capsaicin EC20 potentiation; host cell line not named in the record; control for the full effect not named in the record. potentiation, % at 8.33 µM. 320,000 tested, 0.02% active; active means potentiation above 80%; inconclusive means 30% to 80%; inactive means below 30%; also: 0% is about no effect
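Cells expressing TRPV1 were dye-loaded with Fluo-8 and read kinetically: 10 s baseline, 3 min after compound (agonist portion), then 2 min after EC20 capsaicin (allosteric enhancer portion). Calcium-bound dye fluorescence at 480/520 nm.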
Menin MLL FP FL – displaces fluorescein MLL peptide from human menin | Fluorescence polarization, fluorescein-MLL peptide displacement from menin | FP activity change, % at 61.4 µM | 290,000 tested, under 10 active | AID 1766; inconclusive = falling polarisation curve, or a change in total fluorescence; inactive = total fluorescence flat and polarisation flat or rising; no compound was filed as active; the % refers to the polarisation; negative = inhibition;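 also: % of control where 0% means no effect; inhibitors lower the polarisation; unlabelled MLL peptide was the positive control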
Sfp inh – inhibitors of Bacillus subtilis Sfp phosphopantetheinyl transferase; Q9F4F7; Biochemical Sfp PPTase activity, qHTS; Potency, µM, inactives show max response, negative = inhibition, most hits filed as inhibitors; 310,000 tested, 3.5% active; active = well fitted inhibition curve with a large enough effect; inconclusive = small, poorly fitted or top-dose-only effect, or another doubt; inactive = no such curve, though single readings can be large or run the other way;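 also: the enzyme is Sfp with the accession as filed and its product quenches rhodamine fluorescence; potency is read from the fitted curve at half-maximal effect; 0% = enzyme reaction without inhibitor and -100% = no enzyme wells; top concentration of the series not given in the record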
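Fluorescence-quenching assay with 15 nM Sfp, 5 uM rhodamine-CoA and 12.5 uM BHQ-2-labelled ybbR peptide in pH 7.6 Hepes/MgCl2 buffer. Enzyme was pre-incubated with compound for 15 min at room temperature. Rate was taken from the 30-min fluorescence change (525/598 nm).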
ClpP mod – qHTS Assay for Activators of ClpP; purified B. subtilis ClpP, FRET peptide cleavage, 20 min; Potency, µM (highest dose often 57.5 µM), inactives show top-dose activity change, negative = active; 340,000 tested, 1.9% active; active = well fitted falling curve with a large enough effect; inconclusive = small, poorly fitted or top-dose-only effect; inactive = no such curve, though single readings can be large or run the other way; also: potency is read from the fitted curve at half-maximal effect; the source files actives as falling curves though it sought activators and does not explain the sign; nearly all actives have a fitted effect of over 65% in size; many hits overshoot -100%
Target sequence (P80244 whole entry, looked up): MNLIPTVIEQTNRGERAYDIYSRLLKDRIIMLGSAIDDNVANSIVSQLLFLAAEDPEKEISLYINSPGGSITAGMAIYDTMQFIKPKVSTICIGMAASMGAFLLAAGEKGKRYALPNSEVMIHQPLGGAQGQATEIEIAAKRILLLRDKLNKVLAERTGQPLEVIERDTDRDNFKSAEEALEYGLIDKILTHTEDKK
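Purified B. subtilis ClpP, 10 microg/mL final in Tris/HCl pH8 with KCl, BSA, glycerol and Tween-20, cleaved an Abz/nitrotyrosine-quenched decapeptide. Fluorescence (ex 320, em 430) was read at 0 and 20 min at room temperature. Delta was normalized to 5.8 microM ADEP and DMSO/no-enzyme controls.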
gsp antag – antagonists of gsp mutant (McCune-Albright syndrome); gsp-mutant cells, cAMP HTRF, 30 min; control for the full effect not named in the record; Potency, µM (highest dose often 76.9 µM), inactives show at the highest dose activity change, negative = inhibition, usual class: inhibitors; 340,000 tested, 0.4% active; AID 624288; active = falling curve of any shape with a large fitted effect; inconclusive = falling curve, mostly with a smaller effect; inactive = flat or rising curve; cell line not stated here;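 also: intracellular cAMP measured with PDE inhibitor Ro 20-1724 present during compound exposure; potency is read from the fitted curve at half-maximal effect; % is scaled to controls: 0 for no effect and ±100 for the full control effect; nearly all actives have a fitted effect of over 65% in size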
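Cells, 2000/well, grown 16–24 h in DMEM 10% FBS with 0.5 mg/ml G418, then compounds plus […] (300 uM addition stock), 30 min at 37C. cAMP read by HTRF (cAMP-d2 and anti-cAMP antibody-K in lysis buffer) after 30 min RT.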
* = called active by the depositor; ? = inconclusive; / = not tested or not shown; [ ] = dose if it differs, or a comment.

SMILES	gsp agonist	TRPML1 inh	TRPV1 PAM	Menin MLL FP FL	Sfp inh	ClpP mod	gsp antag
Cc1ccc(CNc2cnccn2)cc1	16%	5	-27	1.0	20%	14µM*	11%
Cc1ccc([C@@H]2C[C@H]3[C@@H](CN2S(=O)(=O)c2ccc(C)cc2)C(=O)C[C@@H](c2ccccc2)N3S(=O)(=O)c2ccc(C)cc2)cc1	4%	-15	/	/	/	0.5%	/
COc1ccc(C)cc1NC(=O)CN1C(=O)c2cccc3cccc1c23	25%	6	?	-2.0	-10%	8.2%	6%
CCOc1ccc(S(=O)(=O)N2CCOCC2)cc1NC(=O)C1=COCCO1	37%	-10	1	/	/	-3.0%	3%
O=S1(=O)CCN(Cc2ccccn2)CC1	-6%	-15	-5	-0.1	17%	0.1%	4%
CC(C)Nc1ccc(C(CC(N)=O)NC(=O)c2ccc(Br)cc2)cc1[N+](=O)[O-] (configuration not stated)	/	23	9	-0.2	4%	0.5%	-9%
COc1ccc(C(=O)NC(=O)COC(=O)C2COc3ccccc3O2)cc1 (configuration not stated)	-10%	7	3	1.8	30%	-1.0%	-15%
COc1ccc(C(=O)O)cc1S(=O)(=O)NC(C)C12CC3CC(CC(C3)C1)C2 (configuration not stated)	-5%[15.4 µM]	5	-3	/	/	-20%	-19%
COc1ccc(SCC(=O)Nc2ccc(N3CCN(C)CC3)c(F)c2)cc1	15%[15.4 µM]	8	0	0.8	18%	/	-7%
Cc1ccc(C)c(N2CCN(C(=O)CCc3nc(-c4cccc(Cl)c4)no3)CC2)c1	/	0	/	/	/	2.8%	-12%
O=c1nc2cccc3c2=c(/c1=C(\O)c1ccccc1)c1ccccc1c3=O	3%	11	7	?	7%	2.4%	-15%
Cc1cccc(NC(=O)c2sc3nc4c(c(-c5cccs5)c3c2N)CN(C)CC4)c1	?	15	10	10	?	-9.8%	-9%
CCOC(=O)C1(CCOc2ccccc2)CCN(Cc2ccc(OCC)c(CO)c2)CC1	3%	-10	/	/	/	0.1%	-7%
Cc1ccccc1OCCn1c(=S)[nH]c2ccccc21	0%	13	-5	2.9	-17%	/	-8%
CC(C)CN1CC(Br)C(=O)NC1=O (configuration not stated)	-24%	-5	/	/	/	/	1%
Cn1c(CN2CCCCC2)nc2cc(NS(=O)(=O)c3ccc(F)cc3)ccc21	-12%[15.4 µM]	-10	2	-3.2	14%	/	-3%
Nn1c(SCc2cccc(Oc3ccccc3)c2)nnc1C(F)(F)F	29%	0	-5	-1.0	15%	/	-10%
Cc1ccc(C(=O)/C=C/c2ccc(-c3ccccc3[N+](=O)[O-])o2)cc1	-27%	1	6	0.3	-14%	-0.1%	?
COCCNC(=O)c1ccc2c(=O)n(Cc3ccco3)c(SCC(=O)NC3CCCCC3)nc2c1	8%	-6	5	6.9	-40%	-3.5%	-13%
CCCN(CC(=O)Nc1ccccc1C)C(=O)CC(NC(=O)c1ccccc1)c1ccccc1 (configuration not stated)	-30%[inhibitor]	13	1	/	/	2.1%	-9%
CCc1nc(N)c(C#N)c(-c2ccc(O)c(OC)c2)c1C	-40%[inhibitor]	17	?	1.8	14%	-5.8%	-8%
Cc1nc2c(c(=O)n1CCC1=CCCCC1)c1nc3ccccc3nc1n2/N=C/c1ccco1	?	8	7	?	-23%	-12%	?
C=CCn1c(SC(C)C(=O)NC2(C#N)CCCCC2)nnc1-c1ccc(OC)cc1 (configuration not stated)	24%	-11	-21	2.1	1%	0.7%	-7%
COc1ccc(CCNC2CC(C)N(C)CC2C)cc1OC (configuration not stated)	0%	28	1	1.1	11%	-0.1%	4%
O=C(Nc1ccc(Cl)cc1C(=O)c1ccccn1)c1ccccc1	-13%	-5	/	/	/	0.1%	/
NS(=O)(=O)c1ccc(NC(=O)CN2CCN(S(=O)(=O)/C=C/c3ccccc3)CC2)cc1	12%[15.4 µM]	6	-1	-0.4	16%	/	-5%
Cc1ccc(S(=O)(=O)N(C)c2ccc(C(=O)Nc3cccnc3)cc2)cc1	-4%	6	8	/	3%	1.7%	-26%
CCOC(=O)CSc1nnc2c3ccccc3n(CC)c2n1	12%	22	4	5.4	20%	1.9%	-6%
Cc1ccc(S(=O)(=O)N(C)Cc2ccc(C(=O)N/N=C3\CC(=O)CC(C)(C)C3)cc2)cc1	-2%[15.4 µM]	2	?	8.9	-3%	0.9%	7%
CCCCn1c(N)c(N(CC(C)C)C(=O)c2oc3ccc(OC)cc3c2C)c(=O)[nH]c1=O	1%	-16	1	/	/	-18%	-7%

6 compounds out of the list, ordered by heavy-atom count, high to low.
SMILES	gsp agonist	TRPML1 inh	TRPV1 PAM	Menin MLL FP FL	Sfp inh	ClpP mod	gsp antag
COCCNC(=O)c1ccc2c(=O)n(Cc3ccco3)c(SCC(=O)NC3CCCCC3)nc2c1	8%	-6	5	6.9	-40%	-3.5%	-13%
CCCN(CC(=O)Nc1ccccc1C)C(=O)CC(NC(=O)c1ccccc1)c1ccccc1 (configuration not stated)	-30%[inhibitor]	13	1	/	/	2.1%	-9%
CCCCn1c(N)c(N(CC(C)C)C(=O)c2oc3ccc(OC)cc3c2C)c(=O)[nH]c1=O	1%	-16	1	/	/	-18%	-7%
Cc1ccc(S(=O)(=O)N(C)c2ccc(C(=O)Nc3cccnc3)cc2)cc1	-4%	6	8	/	3%	1.7%	-26%
O=C(Nc1ccc(Cl)cc1C(=O)c1ccccn1)c1ccccc1	-13%	-5	/	/	/	0.1%	/
CCOC(=O)CSc1nnc2c3ccccc3n(CC)c2n1	12%	22	4	5.4	20%	1.9%	-6%

Continued:
SMILES	gsp agonist	TRPML1 inh	TRPV1 PAM	Menin MLL FP FL	Sfp inh	ClpP mod	gsp antag
CCOc1ccc(NCc2nnc(SCc3ccccc3Cl)n2-c2ccccc2)cc1	5%	-3	-12	2.5	15%	1.7%	-38%
CCOC(=O)Cn1ncn(-c2ccc(OC(F)(F)F)cc2)c1=O	17%	7	3	1.5	18%	/	-3%
C/C(=N\NC(=O)c1c(C)nc2ccccn12)c1ccccc1F	22%	-2	-4	/	9%	/	-1%
O=C(COc1ccc(Cl)cc1)Nc1ccccc1C(=O)NCc1cccnc1	0%	13	13	/	5%	-12%	-31%
CCc1sc(/C=C(/C#N)C(N)=S)cc1[N+](=O)[O-]	-40%[inhibitor]	-4	-2	?	2.8µM*	0.3%	-24%
COC(=O)c1ccccc1S(=O)(=O)N1CCC(C(=O)OC(C)C(=O)Nc2ccccc2OC)CC1 (configuration not stated)	10%	-18	0	/	/	0.3%	?
Oc1ccc(Cl)cc1CNc1ccc(Br)cn1	0%	-25	-7	5.8	-3%	1.1%	-14%
COc1cc(OC)cc(-c2cc(N)n(S(=O)(=O)c3cccc4nsnc34)n2)c1	3%	-5	-1	0.4	3%	0.7%	-31%
CC1=C(C(=O)OCC2CCCO2)C(c2cccc(C(F)(F)F)c2)C2=C(CC(c3ccco3)CC2=O)N1 (configuration not stated)	-9%	-1	-12	1.1	5%	?	-23%
COc1ccccc1NS(=O)(=O)c1cccc(C(=O)NN=C2CCCCCC2)c1	15%	16	-3	3.2	-3%	-3.3%	-7%
Cc1ccc(-c2csc3ncnc(N4CCc5ccccc5C4)c23)cc1	-3%[15.4 µM]	-3	-2	3.2	-24%	-21%	-4%
CN(C(=O)c1cccc(NC(=O)Cc2ccc(NC(=O)C3CCCN(C(=O)c4ccccc4)C3)cc2)c1)C1CCCCC1 (configuration not stated)	/	-9	/	/	/	-0.9%	-6%
COC(=O)CCC(=O)NNC(=O)CCCOc1ccc(Cl)cc1Cl	0%	26	/	-0.6	2%	-0.9%	-8%
O=C(Cn1nnc2ccccc2c1=O)NCC1CCC(C(=O)O)CC1 (configuration not stated)	-19%	/	-4	0.0	17%	-1.2%	19%
N#Cc1ccccc1NC(=O)CSc1n[nH]c(-c2ccco2)n1	-7%	4	6	-1.5	-5%	0.0%	9%
NS(=O)(=O)c1ccc(CCNC(=O)CC(c2ccccc2)c2ccccc2)cc1	-6%[15.4 µM]	-11	-5	-2.0	26%	-0.7%	-5%
O=C(CSc1nnc(NC(=O)c2ccco2)s1)NCc1ccc2c(c1)OCO2	9%[15.4 µM]	19	16	-1.2	3%	-2.2%	-6%
O=C(Nc1nc(=S)ss1)c1c(F)cccc1F	-33%[inhibitor]	47	-1	-0.9	22µM*	1.3%	-18%
CCCN(Cc1ccccc1)C(=S)Nc1ccc(OC(F)F)cc1	-20%	17	-5	3.4	6%	10µM*	12%
O=C(Nc1cc(C(=O)Nc2ccccc2C(=O)O)cc(C(=O)Nc2ccccc2C(=O)O)c1)c1ccccc1	16%	-3	-6	/	5%	-3.9%	?
Nc1cc(=O)[nH]c(SCC(=O)c2ccc(F)cc2)n1	7%	-11	12	-0.6	12%	-0.5%	-1%
